# Screens deposited in PubChem by several laboratories.
# Mtb hypoxia inh: inhibitors of hypoxia-regulated fluorescent reporter in Mycobacterium tuberculosis | M. tuberculosis hypoxia-regulated fluorescent reporter, fluorescence | fluorescence inhibition, % (concentration not given with the values) | hit rate 0.1% among 300,000 | AID 1159583;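 active = 35 to 45% if threefold the growth effect, above 45% if 1.5-fold the growth effect; inactive = the rest, general growth blockers included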;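 note: wells of about 50 µL received 100 nL stock; 0% = vehicle wells and 100% = reference inhibitor wells; whole bacteria with a GFP reporter of the hypoxia response; strong numbers were not always called active; many hits fall short of the cut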
# RN4220 kill: S. aureus RN4220 growth inhibition. OD600, 16 h. inhibition, % (test concentration not listed). hit rate 0.33% among 330,000. AID 1259311;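 active = z-score of -3 or lower and OD600 up to 0.18 on both plates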;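 note: plate controls were untreated cells for no effect and reference antibiotic for full effect; stock transfer was 100 nL into about 80 µL; one replicate is shown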
# ugtP null kill: kills S. aureus RN4220 lacking UgtP. S. aureus RN4220 ugtP deletion, OD600 growth, 16 h; some inactives read as strong as hits. hit rate 0.54% among 330,000. growth inhibition, % (concentration not given with the values);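 active = z-score under -3 and OD600 up to 0.15 on both plates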;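 note: plate controls were untreated wells for no effect and antibiotic for full effect; wells of about 80 µL received 100 nL stock; the first replicate is given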
# Bead autofluor: flagged as autofluorescent in microsphere protease counterscreen; compound autofluorescence counterscreen, microsphere flow cytometry; hits give high values; fluorescence intensity (concentration not given with the values); hit rate 3.1% among 360,000; AID 624483;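 active = at least 3 SD above the mean of all compounds, about 16000 in these data; inconclusive = too few beads counted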;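 note: 100 nL of 1 mM stock went into each well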
# PrP 5UTR inh: inhibition of PrP 5' UTR reporter expression; cell-based PrP 5' UTR mRNA reporter, plate reader; hit rate 0.35% among 340,000; inhibition, % (no concentration beside the values);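 active = every replicate at 50% or more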;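 note: 0 = median of the neutral control wells; tested in H4 reporter cells; numbers are from one replicate; inactives centre near -14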
# BJeLR lethal: BJeLR cell viability loss; inhibition, % (no concentration beside the values); BJeLR (HRASV12) viability, CellTiter-Glo ATP luminescence, 48 h; reference of the scale not given here; hit rate 0.17% among 300,000;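 active = replicate mean above 50%; inconclusive = above 50% but judged a plate artefact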;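 note: 50 nL library stock added to about 25 µL; numbers are from one replicate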
# Mtb hypoxia inh growth: also measured in Mtb hypoxia inh; calls as there; growth inhibition, %; measured here: M. tuberculosis growth (absorbance);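 0% = vehicle and 100% = reference antibiotic; read after six days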
# The depositor's hits bear a star; ? = inconclusive; nt = not tested or not shown.
# The opening 16 compounds (preview)
SMILES,Mtb hypoxia inh,Mtb hypoxia inh growth,RN4220 kill,ugtP null kill,Bead autofluor,PrP 5UTR inh,BJeLR lethal
COc1ccc(S(=O)(=O)N2CCOCC2)cc1NC(=O)C1CCCN1C(=O)c1cccs1 (configuration not stated),1,2,4.0,6,9259,-18,nt
CC1(C)CC(=O)C([N+](=O)[O-])=C(NCCCC(=O)O)C1,5,6,11,4,2496,-12,-4
COc1cccc(CN(C)C(=O)CNC(=O)c2cccs2)c1OC,2,1,3.2,4,5278,-16,-3
CC(C)Cn1c(SCC(=O)NCc2ccco2)nnc1-c1ccncc1,2,4,1.9,3,4320,-8,4
CCOc1ccc(CCNC(=O)COC(=O)C2CCN(S(=O)(=O)c3ccccc3)CC2)cc1OCC,5,5,1.5,6,nt,-8,nt
O=C(CSc1ccncc1)Nc1ccc2ccccc2c1,-4,9,-0.2,2,3835,-11,9
CN1C2CCC1CC(NC(=O)c1cccc(C(F)(F)F)c1)C2 (configuration not stated),4,-1,5.3,15,3636,-12,-6
O=C(NN=Cc1ccccn1)c1cccc(S(=O)(=O)Nc2ccccc2Cl)c1,4,3,5.6,7,nt,nt,nt
O=C(Nc1nc(-c2ccccc2)c(C(=O)c2ccccc2)s1)c1ccc(S(=O)(=O)N2CCCC2)cc1,3,7,9.4,0,2627,-14,8
COc1ccccc1NC(=O)Nc1nc(CC(=O)Nc2ccc(OC)c(OC)c2)cs1,-2,2,0.7,1,4444,-7,0
Cc1ccccc1C(=O)c1cccn1CC(=O)NCCCN1CC(C)CC(C)C1 (configuration not stated),9,16,0.2,2,6111,-3,-3
CCN1CCc2c(OCC(=O)Nc3ccc4c(c3)OCCO4)cccc2C1=O,2,8,6.0,2,nt,nt,19
CCOC(=O)c1ccc(NC(=O)CSc2nnc(CNC(=O)c3ccco3)o2)cc1,5,0,2.3,7,3988,-2,-2
O=S(=O)(Nc1ccc(S(=O)(=O)Nc2ncccn2)cc1)c1ccccc1,10,6,2.2,-3,5552,0,-11
O=C(Nc1nc2ccccc2[nH]1)c1cccc([N+](=O)[O-])c1,nt,nt,nt,nt,3418,-68,-5
COCCNC(=S)NN=C(C)c1cccc([N+](=O)[O-])c1,-2,8,11,5,nt,nt,nt

# The list itself, previewed entries included:
SMILES,Mtb hypoxia inh,Mtb hypoxia inh growth,RN4220 kill,ugtP null kill,Bead autofluor,PrP 5UTR inh,BJeLR lethal
COc1ccc(S(=O)(=O)N2CCOCC2)cc1NC(=O)C1CCCN1C(=O)c1cccs1 (configuration not stated),1,2,4.0,6,9259,-18,nt
CC1(C)CC(=O)C([N+](=O)[O-])=C(NCCCC(=O)O)C1,5,6,11,4,2496,-12,-4
COc1cccc(CN(C)C(=O)CNC(=O)c2cccs2)c1OC,2,1,3.2,4,5278,-16,-3
CC(C)Cn1c(SCC(=O)NCc2ccco2)nnc1-c1ccncc1,2,4,1.9,3,4320,-8,4
CCOc1ccc(CCNC(=O)COC(=O)C2CCN(S(=O)(=O)c3ccccc3)CC2)cc1OCC,5,5,1.5,6,nt,-8,nt
O=C(CSc1ccncc1)Nc1ccc2ccccc2c1,-4,9,-0.2,2,3835,-11,9
CN1C2CCC1CC(NC(=O)c1cccc(C(F)(F)F)c1)C2 (configuration not stated),4,-1,5.3,15,3636,-12,-6
O=C(NN=Cc1ccccn1)c1cccc(S(=O)(=O)Nc2ccccc2Cl)c1,4,3,5.6,7,nt,nt,nt
O=C(Nc1nc(-c2ccccc2)c(C(=O)c2ccccc2)s1)c1ccc(S(=O)(=O)N2CCCC2)cc1,3,7,9.4,0,2627,-14,8
COc1ccccc1NC(=O)Nc1nc(CC(=O)Nc2ccc(OC)c(OC)c2)cs1,-2,2,0.7,1,4444,-7,0
Cc1ccccc1C(=O)c1cccn1CC(=O)NCCCN1CC(C)CC(C)C1 (configuration not stated),9,16,0.2,2,6111,-3,-3
CCN1CCc2c(OCC(=O)Nc3ccc4c(c3)OCCO4)cccc2C1=O,2,8,6.0,2,nt,nt,19
CCOC(=O)c1ccc(NC(=O)CSc2nnc(CNC(=O)c3ccco3)o2)cc1,5,0,2.3,7,3988,-2,-2
O=S(=O)(Nc1ccc(S(=O)(=O)Nc2ncccn2)cc1)c1ccccc1,10,6,2.2,-3,5552,0,-11
O=C(Nc1nc2ccccc2[nH]1)c1cccc([N+](=O)[O-])c1,nt,nt,nt,nt,3418,-68,-5
COCCNC(=S)NN=C(C)c1cccc([N+](=O)[O-])c1,-2,8,11,5,nt,nt,nt
CC(C)OCCCNC(=O)CN1CCN(Cc2ccccc2Cl)C1=O,nt,nt,-2.8,4,2813,1,-4
CCN(Cc1ccccc1)S(=O)(=O)c1c(C)[nH]c(C)c1C(=O)N1CCCC1,-6,1,-3.0,-2,5669,-12,2
O=C(O)CCC(=O)N1CCN(S(=O)(=O)c2cccs2)CC1,8,6,1.6,3,5928,-10,-13
CC(=O)N1CCN(c2ccccc2NC(=O)c2ccc(C#N)cc2F)CC1,5,-2,2.0,2,4305,-10,-3

# Record cards (already shown). Order of values: Mtb hypoxia inh	Mtb hypoxia inh growth	RN4220 kill	ugtP null kill	Bead autofluor	PrP 5UTR inh	BJeLR lethal
# CC(C)OCCCNC(=O)CN1CCN(Cc2ccccc2Cl)C1=O as listed: nt	nt	-2.8	4	2813	1	-4
# CCOC(=O)c1ccc(NC(=O)CSc2nnc(CNC(=O)c3ccco3)o2)cc1 as listed: 5	0	2.3	7	3988	-2	-2

# More compounds follow.
SMILES,Mtb hypoxia inh,Mtb hypoxia inh growth,RN4220 kill,ugtP null kill,Bead autofluor,PrP 5UTR inh,BJeLR lethal
Cc1cccc(CC2CC(=O)N(c3ccc(C)cc3Br)C2=O)c1 (configuration not stated),2,5,2.0,10,3912,-12,-4
Cn1c(-c2cccc([N+](=O)[O-])c2)cnc1NCc1cccc([N+](=O)[O-])c1,-7,10,5.8,9,4252,-14,9
CC(C)CC(=O)NCCNC(=O)c1cc(OCC(F)(F)F)ccc1OCC(F)(F)F,11,17,5.2,-2,2969,-19,-2
CCOc1ccc(NC(=O)c2cccc(NC(=O)c3ccccc3)c2)cc1,1,-3,3.4,5,3951,-25,0
CC(=O)c1c(C)[nH]c(C(=O)OCc2nnc(-c3ccc([N+](=O)[O-])cc3)o2)c1C,-4,-6,2.0,-2,nt,nt,nt
CCC(=O)N1CCCc2cc(S(=O)(=O)N3CCN(c4ncccn4)CC3)ccc21,-3,-8,-2.4,-2,4230,-13,0
COC(=O)C1C2CC3c4[nH]c5cc(OC)ccc5c4CCN3CC2CC(OC(=O)C=Cc2cc(OC)c(OC)c(OC)c2)C1OC (configuration not stated),-8,4,5.7,-19,nt,nt,nt
COc1cccc(CN2CCCCC2C(=O)O)c1 (configuration not stated),3,-1,4.7,-2,4480,-29,6
COc1ccc(NS(=O)(=O)c2cccc3nsnc23)cc1Cl,9,5,4.3,8,3606,-14,-9
COc1ccc(C2Nc3ccccc3C(=O)N2Cc2ccccc2)cc1CSc1ccccn1 (configuration not stated),-2,4,4.9,14,9720,-5,4
O=C(NNC1=Nc2ccccc2SC1)c1ccc(Cl)cc1,5,20,13,-2,?,28,16
Cc1c(C(=O)N(C)Cc2cccc(F)c2)oc2c(Cl)cccc12,5,8,1.6,24,3759,-1,-5
